Mtb growth = Mycobacterium tuberculosis H37Rv growth inhibition, cell based, confirmatory dose response (AID 1949). hit rate 1.6% among 100,000. inhibition, % at 10 µg/mL; hits with a dose series show IC50 in µg/mL. most inactive calls were filed without a number and no value below 0 was filed;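 active = confirmed in a dose series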;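 note: bacteria grown 7 days with compound before Alamar blue readout; 0% = untreated bacteria and 100% = reference antibiotic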
* = called active by the depositor; i = inactive. This is a subset; the hit share may differ from the screen's.

Start of the listing, in advance:
cpd	SMILES	Mtb growth
1	Cc1cc(C(F)(F)Cl)n2nc(C(=O)O)cc2n1	i
2	OC(COc1ccccc1)CN1CCN(c2cccc(Cl)c2)CC1 (stereo unspecified)	28%
3	CCOc1ccc(-c2cc(C(=O)Nc3cc(C(F)(F)F)ccc3Cl)c3ccccc3n2)cc1	1%
4	COc1ccc([N+](=O)[O-])cc1NC(=O)COc1cc(C)c(Br)cc1C(C)C	i

The listing, previewed entries included:
cpd	SMILES	Mtb growth
1	Cc1cc(C(F)(F)Cl)n2nc(C(=O)O)cc2n1	i
2	OC(COc1ccccc1)CN1CCN(c2cccc(Cl)c2)CC1 (stereo unspecified)	28%
3	CCOc1ccc(-c2cc(C(=O)Nc3cc(C(F)(F)F)ccc3Cl)c3ccccc3n2)cc1	1%
4	COc1ccc([N+](=O)[O-])cc1NC(=O)COc1cc(C)c(Br)cc1C(C)C	i
5	CCc1ccccc1N(CC(=O)N1CCN(c2cccc(Cl)c2)CC1)S(=O)(=O)c1ccccc1	3%
6	Cc1cccc(C(C)C)c1NC(=O)c1cc([N+](=O)[O-])ccc1Cl	i
7	CCCc1cc(=O)[nH]c(SCC(=O)Nc2ccc(OC)cc2OC)n1	i
8	CCn1cc(C(=O)O)c(=O)c2cnc(N3CCN(C(=S)Nc4sc5c(c4C(=O)OC)CCCCCC5)CC3)nc21	i
9	CCC(Oc1ccccc1)c1nnc(NC(=O)c2cccs2)s1 (stereo unspecified)	3%
10	COc1ccc(NC(=S)NCC2CCCO2)c(OC)c1 (stereo unspecified)	i
11	O=C(CN1C(=O)COc2ccccc21)N1CCCC1	2%
12	CCCC(=O)Nc1cccc(NC(=O)c2ccccc2I)c1	i
13	C=CCSc1nc2c(c(=O)[nH]1)C(c1ccc(OCc3ccccc3)cc1)C1=C(CCCC1=O)N2 (stereo unspecified)	33%
14	C=CCNC(=S)N1CCNC(=O)C1CC(=O)Nc1cc(Cl)ccc1OC (stereo unspecified)	i
15	COc1ccc(C(=O)Nc2ccccc2C#N)cc1Cl	i
16	O=C(O)CSc1c(NC(=O)c2ccccc2)sc2c1CCCC2	i
17	CC(NC(=O)c1ccccc1NC(=O)CSCc1ccccc1)c1ccccc1 (stereo unspecified)	i
18	COc1ccc(C2SCC(=O)Nc3c2c(C)nn3C2CCOC(C)(C)C2)cc1OC (stereo unspecified)	2%
19	CC(C)c1ccc(OCC(=O)NC(=S)Nc2ccc3c(c2)Cc2ccccc2-3)cc1	22%
20	CC1=C(C(=O)N2CCOCC2)C(c2ccc(C(F)(F)F)cc2)C2=C(CCCC2=O)N1 (stereo unspecified)	i
21	COc1ccc(-n2c(SCC(=O)c3ccc(Cl)cc3Cl)nnc2-c2cccnc2)cc1	i
22	COc1ccc(OC)c(NC(=O)Nc2ccccc2Cc2ccccc2)c1	i
23	Cc1cccc(-n2c(N)cc(=O)nc2SCC(=O)NC2CCCCC2)c1	1%
24	O=C(NCCCN1CCCC1=O)c1ccc2c(c1)OCO2	i
25	Cc1ccc(Oc2c(C(F)(F)F)oc3c(CN4CCCC4)c(O)ccc3c2=O)cc1	i

6 successive compounds from above, quoted:
cpd	SMILES	Mtb growth
1	Cc1cc(C(F)(F)Cl)n2nc(C(=O)O)cc2n1	i
2	OC(COc1ccccc1)CN1CCN(c2cccc(Cl)c2)CC1 (stereo unspecified)	28%
3	CCOc1ccc(-c2cc(C(=O)Nc3cc(C(F)(F)F)ccc3Cl)c3ccccc3n2)cc1	1%
4	COc1ccc([N+](=O)[O-])cc1NC(=O)COc1cc(C)c(Br)cc1C(C)C	i
5	CCc1ccccc1N(CC(=O)N1CCN(c2cccc(Cl)c2)CC1)S(=O)(=O)c1ccccc1	3%
6	Cc1cccc(C(C)C)c1NC(=O)c1cc([N+](=O)[O-])ccc1Cl	i

Fetched by compound from the entries so far, 2 records:
cpd	SMILES	Mtb growth
20	CC1=C(C(=O)N2CCOCC2)C(c2ccc(C(F)(F)F)cc2)C2=C(CCCC2=O)N1 (stereo unspecified)	i
10	COc1ccc(NC(=S)NCC2CCCO2)c(OC)c1 (stereo unspecified)	i

(listing goes on)
cpd	SMILES	Mtb growth
26	CCc1ccc(NC(=O)COc2ccc(NC(C)=O)cc2)cc1	i
27	CCCN(CCC)S(=O)(=O)c1ccc(NC(=O)c2cc(OC)c(OC)c(OC)c2)cc1	i
28	CC(C)NC(=O)COc1ccc(S(=O)(=O)NC(C)C)cc1	2%
29	O=C(NC1CCCCC1)C(Cc1ccccc1)N1C(=O)C2C3CCC(C3)C2C1=O (stereo unspecified)	i
30	COc1ccc2ccccc2c1CN1CCN(C(=O)c2cccnc2)CC1	i
31	Cc1ccc(-c2nc3ccc(C)cc3[nH]2)cc1	17%
32	O=C(OCc1ccc(Cl)cc1)c1cccs1	33%
33	O=C(NC(=S)Nc1ccc(I)cn1)c1ccc(-c2cccc(Cl)c2)o1	i
34	CCCSc1nnc(C(C)C)n1N	i
35	CCCc1cc(C(=O)O)c2ccccc2n1	i
36	O=C1C2CCCCC2C(=O)N1CC(=O)N1c2ccccc2Sc2ccccc21 (stereo unspecified)	1%
37	CSc1nsc(SC)c1NC(=O)OCCc1ccccn1	3%
38	Cc1cc(NC(=O)COc2ccc([N+](=O)[O-])cc2)c(C)cc1I	i
39	COc1cc(S(=O)(=O)N2CCc3ccccc3C2)ccc1Cl	i
40	COC(=O)c1ccc(NC(=S)Nc2cccc(C)n2)cc1	i
41	CCOc1cc(CNc2ccc(F)cc2)cc(Br)c1OCC(=O)NC(C)(C)C	4%
42	CCOc1cc(C=O)cc(I)c1OCC	i
43	C=C(C)CSc1nc2sc3c(c2c(=O)n1-c1ccc(C)cc1)CC(C)(CC)OC3 (stereo unspecified)	i
44	Oc1ccc(Nc2ncnc3ccc(I)cc23)cc1	i
45	Cc1cc(C)c(S(=O)(=O)Nc2ccc(N3CCOCC3)cc2)c(C)c1	i
46	O=C(NCc1ccccn1)c1ccccc1C(=O)c1ccccc1	i
47	CC(=O)C1=C(O)C(=O)N(c2nc3ccccc3s2)C1c1ccc(O)cc1 (stereo unspecified)	15%
48	Cc1cc(O)ccc1NC(=O)c1ccccc1Cl	i
49	CC(C)C(=O)Nc1cccc(NC(=O)COc2ccc(Br)cc2)c1	i
50	CN=C(NS(=O)(=O)c1ccc(F)cc1)c1ccccc1	i
51	O=c1oc2cc(O)ccc2c2c1CCCC2	i
52	O=C(NC(=S)Nc1ccc(I)cc1C(F)(F)F)c1cccs1	i
53	OC(COc1ccc2cc(Br)ccc2c1)CN1CCN(c2ccccc2F)CC1 (stereo unspecified)	15%
54	COc1ccc(OC)c(NC(=S)NC2CCC(C(C)(C)C)CC2)c1 (stereo unspecified)	33%
55	Cc1ccc(-c2csc3nnc(SCCOc4ccccc4)n23)cc1	7%
56	Cc1ccc2nc(N3CCN(Cc4ccccc4)CC3)c(C=O)c(=O)n2c1	i
57	O=C(c1cc2cc(Br)ccc2oc1=O)N1CCN(c2ccc(Cl)c(Cl)c2)CC1	i
58	O=C1CC(Sc2ccccn2)C(=O)N1c1ccc(Cl)c(Cl)c1 (stereo unspecified)	i
59	Cc1ccc(NC(=O)c2c(NC(=S)Nc3ccccc3)sc3c2CCC3)cc1	i
60	CCOC(=O)C1CCN(C(=O)CN(Cc2ccccc2F)S(=O)(=O)c2ccc(Cl)cc2)CC1	i
61	CCOc1c(Br)cc(C2NC(=S)NC(C)=C2C(=O)Nc2ccc(C)cc2)cc1OC (stereo unspecified)	i
62	CC(=O)Oc1cccc(C(=O)Nc2ccncc2)c1	i
63	Cc1coc(NC(=O)CSc2nc3c(c(C(F)(F)F)c2C#N)CC(c2ccccc2)CC3)n1 (stereo unspecified)	i
64	O=C(CCC1CCCC1)NCc1cccs1	1%
65	Cc1ccc(C)c(C(C)NC(=O)c2ccc(Br)o2)c1 (stereo unspecified)	0%
66	CCOC(=O)C(=Cc1ccc(-c2ccc(F)cc2)o1)C(=O)OCC	i
67	Cc1ccc(NC(=O)Cn2cnc3sc(C(=O)OC(C)C)c(C)c3c2=O)cc1	i
68	CCCCOc1ccccc1NC(=O)c1ccc(SC)cc1OC	i
69	Cc1c(NC(=S)NCc2ccccn2)c(=O)n(-c2ccccc2)n1C	5%
70	Cc1ccc(OCC(=O)Nc2ccccc2N2CCN(C(=O)C(C)C)CC2)c(C)c1	i
71	O=C(Nc1ccc(C(=O)N2CCOCC2)cc1)c1ccccc1[N+](=O)[O-]	i
72	Cn1cc(C2(c3cn(C)c4ccccc34)C(=O)Nc3ccccc32)c2ccccc21	i
73	CN(CCc1ccccn1)C1CCCCC1	1%
74	CCOC(=O)C(Cc1ccc(Br)cc1)Sc1nnc(N)s1 (stereo unspecified)	i
75	COc1ccccc1NC(=O)CC(NC1CCCCC1)C(=O)O (stereo unspecified)	i

(list continues)
cpd	SMILES	Mtb growth
76	COc1ccc(C2C(C(=O)OCCOc3ccccc3)=C(C)NC3=C2C(=O)CC(C)(C)C3)c(OC)c1OC (stereo unspecified)	i
77	CC(NS(=O)(=O)c1ccc(CCC(=O)NCc2ccccn2)cc1)c1ccccc1 (stereo unspecified)	i
78	COC(=O)COc1ccc(-c2ccccc2)cc1	0.22µg/mL*
79	CC(NC(=O)Cc1cccc2ccccc12)c1ccc2c(c1)CCCC2 (stereo unspecified)	9%
80	Cc1nnc(NC(=O)CSc2ccc(C(C)(C)C)cc2)s1	i
81	O=C(Nc1cc(-c2nc3ccccc3s2)ccc1Cl)c1ccc(-c2ccccc2[N+](=O)[O-])o1	2%
82	CCCOc1c(Br)cc(C2NC(=O)NC(C)=C2C(=O)OC)cc1OCC (stereo unspecified)	3%
83	O=C(Oc1ccc2c(c1)oc(=O)c1ccccc12)c1cccs1	17%
84	Cc1cc(C)c(NC(=O)c2ccc(-c3ccccc3)cc2)c(Cl)c1	i
85	CC(=O)Nc1nc(-c2ccccc2)nc2sc(C#N)c(C)c12	i
86	CCOc1ccc(S(=O)(=O)NCc2ccccc2Cl)cc1	i
87	CCOc1ccc(-c2cc(C(=O)N3CCCCC3C)c3ccccc3n2)cc1 (stereo unspecified)	i
88	CCOC(=O)N1CCN(C(=O)NC2CCCCC2)CC1	i
89	CCOC(=O)c1sc(NC(=O)CSc2nc(O)c(Cc3ccccc3)c(=O)[nH]2)nc1C	4%
90	Cc1nnc(SCC(=O)OC2CC(C)CCC2C(C)C)[nH]c1=O (stereo unspecified)	2%
91	Cc1nn(C)c(C)c1CN(C)C(=S)Nc1ccc(F)c(Cl)c1	1%
92	O=C(NCc1cccnc1)c1cccc(COc2ccc(Cl)cc2Cl)c1	i
93	CCc1c(C)sc(NC(=O)c2ccc3c(c2)OCO3)c1C(=O)OC	i
94	O=C(Nc1ccc(F)cc1F)c1ccc([N+](=O)[O-])cc1Cl	i
95	Cc1cc(C)cc(-n2cnc3ccccc3c2=O)c1	i
96	CC(NC(=O)c1ccc(S(=O)(=O)N(C)C)cc1)c1ccccc1 (stereo unspecified)	i
97	CCn1c(SCC(=O)Nc2ccccc2C(=O)OC)nnc1-c1ccncc1	3%
98	Cn1c(=O)c2c(nc(N3CCCCC3)n2Cc2ccccc2Br)n(C)c1=O	i
99	Cc1cc(C)c(S(=O)(=O)Nc2ccccn2)cc1C	i
100	Cc1ccc(C(=O)Nc2ccc(I)cc2Cl)cc1Cl	i
101	COc1cccc(N2C(=O)N(c3ccccc3C)C3CS(=O)(=O)CC32)c1 (stereo unspecified)	2%
102	CC(=O)Nc1ccc(S(=O)(=O)NCc2cccs2)cc1	i
103	O=C(CSc1nnnn1-c1ccccc1)NCC(=O)c1ccccc1	0%
104	CCOC(=O)c1ccc(N2Cc3ccccc3C2)cc1O	i
105	Cc1ccc(CNC(=O)c2ccc(CN(c3ccccc3)S(C)(=O)=O)cc2)cc1	i
106	COc1ccc(NC(=O)Nc2ccc(C)c(F)c2)c(OC)c1	i
107	Cc1ccc(C(=O)Nc2cccc(Cl)c2Cl)cc1Br	i
108	CCC(Sc1nnnn1-c1ccccc1)C(=O)Nc1nc2ccccc2s1 (stereo unspecified)	i
109	O=C1CC(Sc2ccccn2)C(=O)N1c1ccc(F)cc1 (stereo unspecified)	4%
110	COc1ccccc1C(=O)NNC(=S)NC(=O)C1CCCCC1	3µg/mL*
111	Cc1ccc2c(Cl)c(C(=O)Nc3cc(C)on3)sc2c1	i
112	CC(C)NC(=S)NC(=O)c1ccccc1I	4%
113	CN1Cc2ccc(CN3C(=O)c4ccccc4C3=O)cc2NC1=O	i
114	Cc1ccc(-c2nnc3c4c5c(sc4ncn23)CC(C)CC5)cc1 (stereo unspecified)	1%
115	COCCNC(=O)c1cccc2c1-c1ccccc1C2=O	i
116	CCC(Sc1nnnn1-c1ccccc1)C(=O)NC(C)c1ccccc1 (stereo unspecified)	i
117	CCc1cccc(NC(=O)c2ccc(Br)cc2)c1	i
118	COc1ccc(NC(=S)Nc2cccc(C(=O)NCc3ccccc3)c2)cc1OC	i
119	Cc1nn(-c2ccc([N+](=O)[O-])cc2)c(C)c1NS(=O)(=O)c1ccccc1	i
120	O=C(NCCOCc1ccccc1)C(c1ccccc1)c1ccccc1	i
121	Cc1ccc(CNC(=O)COc2ccc(S(=O)(=O)NC3CCCCC3)cc2)cc1	i
122	O=C(O)CCCOc1ccc([N+](=O)[O-])cc1	i
123	COc1ccc(Cl)cc1NC(=O)c1ccc(-c2cccc(Cl)c2Cl)o1	i
124	COc1ccc(CN(CCOC(C)=O)C2CCCCC2)cc1OC	i
125	CCc1ccccc1NC(=O)CCOc1ccccc1	i

The list goes on.
cpd	SMILES	Mtb growth
126	CCOC(=O)C(Oc1ccc2c(C)cc(=O)oc2c1)c1ccccc1 (stereo unspecified)	i
127	O=C(COc1ccccc1)Nc1ccc(C(=O)NCC2COc3ccccc3O2)cc1 (stereo unspecified)	i
128	COc1ccc(-c2csc(NC(=S)NC(=O)c3cccc(OC)c3)n2)cc1	i
129	CCOC(=O)C1=C(C)N=c2s/c(=C\c3ccc(-c4ccc(Cl)c(C(=O)O)c4)o3)c(=O)n2C1c1ccccc1Cl (stereo unspecified)	i
130	Cc1ccccc1Nc1nnc(C)c(=O)n1N	i
131	CC(C)CC(C(=O)Nc1nnc(C(C)C)s1)N1C(=O)c2ccccc2C1=O (stereo unspecified)	i
132	CC(=O)c1cc2c(cc1NC(=O)CSc1nnc(C)s1)OCO2	i
133	COCCCNc1ncnc2ccc(I)cc12	i
134	Cc1c(Cl)cccc1N1CC(C(=O)NC2CCCCC2)CC1=O (stereo unspecified)	i

Assay outcomes (PubChem BioAssay)
